Bioassay records deposited in PubChem by National Center for Advancing Translational Sciences (NCATS).
HSD17B inhib: blocks hydroxysteroid 17-beta dehydrogenase activity. 7.6% of 75,000 active. recombinant HSD17B10, NADH fluorescence kinetic; many of its hits are not listed in these tables. Potency, µM (highest dose often 57.1 µM), for the others: at the highest dose activity change, negative = inhibition, hits mostly inhibitors; active means well fitted inhibition curve with a large enough effect; inconclusive means small, poorly fitted or top-dose-only effect; inactive means no such curve, though single readings can be large or run the other way;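 further: the protocol describes HADH2 (HSD17B10) and not the HSD17B4 of the title; nearly all actives have a fitted effect of over 70% in size; most hits overshoot -100% by far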
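20 nM HADH2, pH 9.0 Tris/Tween; cpd preinc 15 min RT; start w/ 1 mM NAD+ + 90 uM b-hydroxybutyryl-CoA; kinetic fluor ex360/em450 q30s x 4 min; delta last-first.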
* = called active by the depositor; ? = inconclusive; & = joins results of further samples; [ ] = remark or other dose. On the % scale 0 is the no-effect control and ±100 the full control effect; potency means the concentration at half of the fitted maximal effect. This is a subset, so the mix of outcomes need not match the whole.

compound | HSD17B inhib
CCOc1ccc2nc(NC(=O)CSc3nnc(-c4ccncc4)n3CC3CCCO3)sc2c1 (stereo not drawn) | 8.0%
O=C(c1ccc2c(c1)OCO2)N1CCCCC1 | -8.7%
CCOC(=O)N1CCC(N2C(=O)c3ccc(C(=O)Nc4ccc(F)cc4F)cc3C2=O)CC1 | 7.4%
O=C(O)CCC(=O)c1ccc2c(c1)OCCCO2 | -2.2%
O=C(Nc1cccc(NC(=O)c2ccco2)c1)c1ccc2c(c1)OCO2 | ?
CCC(Sc1nncn1C)C(=O)Nc1ccccc1OC (stereo not drawn) | 11.2%
CCC1CCCCN1C(=O)Cn1c(C(=O)OC)cc2sc(Cl)cc21 (stereo not drawn) | 7.5%
Cn1c(NCC2CCCO2)nc2c1c(=O)n(Cc1ccccc1)c(=O)n2C (stereo not drawn) | 7.5%
CCc1cc2c(nc1CC)CCN(CC/C(C)=N/O[C@@H](C)CN1CCCCc3nc(C)c(C)cc31)C2 | 5.5%[11.4 µM]
NC(=O)c1cnn2c(C(F)(F)F)cc(-c3ccc(F)cc3)nc12 | ?
Cn1c(C(=O)N2CCCC(C(=O)O)C2)cc2sccc21 (stereo not drawn) | -5.0%
Cc1cc(NC(=O)COc2ccc(Cl)cc2Cl)n(CCC#N)n1 | 2.7%
Cc1cc(NCc2ccco2)n2c(nc3ccccc32)c1C#N | 3.16µM*
CCNc1ncc2nc(C)c(=O)n(Cc3cccs3)c2n1 | 15.8µM*
N[C@H](Cn1ccc(=O)c(O)c1)C(=O)O | 6.1%
COC(=O)c1c(NC(=O)CC2SCC(C(=O)OC)NC2=O)sc2c1CCCC2 (stereo not drawn) | -15.1%
CCOc1cccc2cc(C(=O)Nc3nccs3)c(=O)oc12 | 3.3%
COc1ccc(OC)c(-c2nc3c(C)n[nH]c(=O)c3[nH]2)c1 | ?
O=C(c1ccncc1)N1CCC[C@@]2(CCN(c3ccccn3)C2)C1 | -2.0%
COCCSc1nnc(NC(=O)CSCc2ccccc2)s1 | -28.5%
COc1cccc(-c2nnc(NC(=O)Cc3cccs3)s2)c1 | ?
CC(C)CCn1c(SCC(=O)OCn2nnc3ccccc3c2=O)nc2ccccc2c1=O | -8.8%
O=C(c1ccco1)N1CCN(C(=O)c2cc(-c3ccccn3)nc3ccc(Cl)cc23)CC1 | ?
Cc1ccc(-n2nnc3c(=O)oc4ccccc4c32)cc1 | -1.0%
COc1cc(C(=O)Nc2nc3ccc(S(=O)(=O)N4CCOCC4)cc3s2)cc(OC)c1OC | -27.4%
O=C(CSc1nc2c(c(=O)n1-c1ccc(Br)cc1)SCC2)Nc1nccs1 | 11.0%
O=C(c1cc(C(F)(F)F)cc(C(F)(F)F)c1)N1CCC2(CC1)CN(c1ncccn1)C2 | 31.6µM*
COc1ccc(N2CCN(CCCNC(=O)CC3Oc4ccc(C)cc4NC3=O)CC2)cc1 (stereo not drawn) | -6.6%
CCOC(=O)c1ccc(Nc2ncnc3nc[nH]c23)cc1 | ?
CCOC(=O)N1CCC(NC(=O)CCN2C(=O)C3C4C=CC(C4)C3C2=O)CC1 (stereo not drawn) | 9.8%
O=C(O)c1cccc2cccc(-c3cccc4cccc(C(=O)O)c34)c12 | 4.2%[11.4 µM]
Cc1ccc(C)n1-c1ccc(C(=O)N2CCOCC2)cc1 | -12.3%
CN(C)c1ccc(CNn2cnnc2SCc2ccccc2F)cc1 | -2.1%
CCOC(=O)N1CCN(C2CC(=O)N(c3ccc(C)cc3)C2=O)CC1 (stereo not drawn) | -0.6%
Nc1nc(SCC(=O)NCc2ccccc2)n[nH]1 | 5.6%
Cc1ccc(S(=O)(=O)N2CCN(C(=O)c3cccc(F)c3)CC2)cc1 | 4.0%
Cn1nnnc1SCC(=O)N1c2ccccc2Sc2ccc(Cl)cc21 | -1.4%
O=C1C2C3C=CC(C3)C2C(=O)N1c1cccc2cccnc12 (stereo not drawn) | -4.3%
Cn1nnnc1SCC(=O)Nc1ccccc1Cl | 1.9%
O=C1CC(Sc2nnnn2C2CCCCC2)C(=O)N1c1ccccc1 (stereo not drawn) | 25.1µM*
O=C(N/N=C1/C[C@@H](O)[C@@H](O)[C@@H]2[C@@H]3C(=O)N(c4cccc(Oc5ccccc5)c4)C(=O)[C@H]3CC[C@@H]12)OCc1ccccc1 | 3.9%[11.4 µM]
CC1(C(=O)O)CCC(C(=O)Nc2ccccc2)C1(C)C (stereo not drawn) | 6.3%
COc1c(Cl)cc(-c2noc(C)c2C(=O)NCc2ccc3c(c2)OCO3)cc1Cl | -4.0%
Nc1cc(N)nc(SCC(=O)Nc2ccc(Br)cc2Cl)n1 | -10.5%
Cn1cc(/C=N/n2cnc3scc(-c4ccc(Cl)cc4)c3c2=O)c2ccccc21 | ?
C/C(=C1/SC(N2CCOCC2)=NC1=O)c1ccc(Cl)cc1 | 9.0%
CN(C)CCCCl | 6.7%
COCCn1nnnc1C(CC(C)C)N1CCN(C(=O)c2ccco2)CC1 (stereo not drawn) | 6.5%
CC(=O)Oc1ccc2c(c1C(C)C)CCC1C(C)(C)CCC[C@@]21C (stereo partly drawn) | 2.3%
O=C(CCn1c(=O)sc2ccccc21)Nc1nccs1 | 3.3%

The final 5 compounds of the section before lead into the next.
molecule,HSD17B inhib
C/C(=C1/SC(N2CCOCC2)=NC1=O)c1ccc(Cl)cc1,9.0%
CN(C)CCCCl,6.7%
COCCn1nnnc1C(CC(C)C)N1CCN(C(=O)c2ccco2)CC1 (stereo not drawn),6.5%
CC(=O)Oc1ccc2c(c1C(C)C)CCC1C(C)(C)CCC[C@@]21C (stereo partly drawn),2.3%
O=C(CCn1c(=O)sc2ccccc21)Nc1nccs1,3.3%
O=C(Nc1ccc(N2CCN(C(=O)c3ccco3)CC2)cc1)c1ccc(F)cc1,-8.0%
FC(F)(F)c1cc(-c2ccccc2)nc(N2CCCCCC2)n1,-13.3%
COC(=O)c1c(NC(=O)c2cccs2)sc2c1CCCC2,31.6µM*
O=C(C1=C(O)C(=O)N(CCN2CCOCC2)C1c1ccccn1)c1cccs1 (stereo not drawn),-12.0%
O=C(Nc1nncs1)c1c(F)c(F)c(F)c(F)c1F,-18.5%
CC(C)(C)c1nc(NCC2CCCO2)c2nnn(Cc3ccccc3)c2n1 (stereo not drawn),3.7%
COc1ccc(NC(=O)c2cnc3ccccn3c2=O)cc1OC,4.6%
COc1ccc(C(=O)N2CCCC(c3nc(-c4cccs4)no3)C2)cc1 (stereo not drawn),1.7%
COc1ccccc1NC=C1C(=O)OC(C)(C)OC1=O,-4.7%
Cc1ccccc1P(=O)(CO)c1ccccc1C,1.4%
Cc1ccc(-c2nn(C)c(=O)c3ccccc23)cc1CNS(C)(=O)=O,13.2%
CCN(CC)S(=O)(=O)c1cccc(-c2nnc(SCC(=O)c3cc(C)n(C4CC4)c3C)o2)c1,-1.1%
Cc1ccc(N2CC(C(=O)Nc3ccncc3)CC2=O)cc1 (stereo not drawn),10.4%
Cc1nc2ccc(S(=O)(=O)NC(C(=O)NC3CCCC3)C(C)C)cc2s1 (stereo not drawn),6.1%
CC(C)c1cc(NC(=O)CSc2nnc(-c3ccccc3F)n2C)on1,-0.9%
CC(C)OC(=O)NCCOC(=O)Nc1cccc(Cl)c1,4.6%
Cc1cc2nc(NC3=NCN(Cc4ccc5c(c4)OCO5)CN3)nc(C)c2cc1C,-2.4%
Cc1cc(=O)oc2cc(OCc3nnc(-c4ccccc4Br)o3)ccc12,25.1µM*
O=C(NCC1CCCO1)c1sc(=S)n2c1[nH]c(=O)c1ccc(C(=O)N3CCCCC3)cc12 (stereo not drawn),?
C=CCc1cccc2cc(C(=O)N3CCN(C(=O)OCC)CC3)c(=O)oc12,25.1µM*

Fetched by compound from the list above, 6 records:
molecule,HSD17B inhib
COc1cc(C(=O)Nc2nc3ccc(S(=O)(=O)N4CCOCC4)cc3s2)cc(OC)c1OC,-27.4%
O=C(c1cc(C(F)(F)F)cc(C(F)(F)F)c1)N1CCC2(CC1)CN(c1ncccn1)C2,31.6µM*
CCOc1ccc2nc(NC(=O)CSc3nnc(-c4ccncc4)n3CC3CCCO3)sc2c1 (stereo not drawn),8.0%
CN(C)c1ccc(CNn2cnnc2SCc2ccccc2F)cc1,-2.1%
O=C(O)CCC(=O)c1ccc2c(c1)OCCCO2,-2.2%
Cn1cc(/C=N/n2cnc3scc(-c4ccc(Cl)cc4)c3c2=O)c2ccccc21,?

Additional entries.
molecule,HSD17B inhib
CC1=C(C(=O)NCc2ccc3c(c2)OCO3)C2(CCC(C)CC2)OC1=O (stereo not drawn),-5.3%
COC1(c2cc(-c3ccccc3)nc(N)n2)CCCCC1,31.6µM*
CCCCC(CC)C(=O)Nc1ccccc1C(=O)NC(C)C (stereo not drawn),-4.8%
NC(=O)C(=O)O,8.1%
CSCC[C@H](C=O)NC(=O)[C@H](CC(C)C)NC(=O)[C@H](CC(C)C)NC(C)=O,16.2%
Cc1ccc(NC(=O)C2C3C=CC4(CN(Cc5cccnc5)C(=O)C24)O3)cc1F (stereo not drawn),-4.6%
CNc1nnc(CSc2nc3ccccc3s2)s1,-12.8%
CC1CCc2c(sc3ncnc(N4CCOCC4)c23)C1 (stereo not drawn),1.2%
CCCNC(=O)CN(C1CCCCC1)S(C)(=O)=O,3.8%
COc1ccc(O)c(C2NC(CC(C)C)(C(=O)O)C3C(=O)N(Cc4ccccc4)C(=O)C23)c1 (stereo not drawn),-2.0%
CCN(CC)C(=O)c1cc2sc3ccccc3c2s1,-3.5%
O=C(Nc1cccc(C(F)(F)F)c1)c1cccnc1,9.7%
CC1(CCc2ccc3c(c2)OCO3)NC(=O)c2ccccc2N1 (stereo not drawn),25.1µM*
O=C(CCc1ccccc1)Nc1cccc(-c2nnc(-c3ccco3)o2)c1,?
COCCn1c(C)cc(C(=O)COC(=O)CCc2ccc(S(=O)(=O)N3CCOCC3)cc2)c1C,7.5%
CC(=O)COC(=O)c1cccc(N2C(=O)C3C4C=CC(C4)C3C2=O)c1 (stereo not drawn),4.6%
COc1ccccc1NC(=O)CSc1nnc(C2CCCCC2)o1,2.4%
COc1ccc(S(=O)(=O)Cc2ccc(C(=O)N3CCN(c4cc(Cl)ccc4C)CC3)o2)cc1,-2.5%
CC1(C)CC2CC(C)(CN2CC(=O)C(C#N)c2ccccc2)C1 (stereo not drawn),-1.6%
CCCCn1c2nc3ccccc3nc2c2c(=O)n(CCC(C)C)cnc21,12.8%
CCOc1ccc(-n2cc(C(=O)N3CCC(C)CC3)c3cc(OC)c(OC)cc3c2=O)cc1,1.1%
CCOC(=O)c1ccc(-n2c(N)c(C(=O)NCc3ccco3)sc2=S)cc1,-29.2%
Cc1ccc(Nc2nc(N)nc(CN3CCCCCC3)n2)c(C)c1,-2.3%
Cc1cc(C)n(-c2nc3c(c(=O)[nH]c(=O)n3C)n2CC(C)C)n1,-21.0%
CCCC1=C(C(=O)OCC)C(c2cc(Cl)cc(OC)c2OCC(=O)OCC)NC(=O)N1 (stereo not drawn),-1.2%
CCOC(=O)c1cnc2c(C(=O)OC)cccc2c1NCc1ccco1,31.6µM*
O=C(NC1CCCC1)c1sc(=S)n2c1[nH]c(=O)c1ccccc12,?
C=C(C)COc1ccc(-c2nc(N)ncc2-c2ccc(OC)cc2)c(O)c1,-9.9%
CCc1cc2c(N3CCN(c4nnc(CC)s4)CC3)ncnc2s1,0.5%
N#C/C(C(=O)c1ccccc1)=C1/SC=C(N)N1c1ccccc1,25.1µM*
CCC(Sc1nc(-c2ccccc2)cc(=O)[nH]1)C(=O)O (stereo not drawn),8.9%
CCOc1ncccc1C(=O)OCC(=O)N1CC(=O)Nc2ccccc21,1.1%
Cc1ccc(CCNC(=O)C2CCCN(S(=O)(=O)c3cnc[nH]3)C2)cc1 (stereo not drawn),7.4%
O=C1c2ccccc2C(=O)N1c1n[nH]c(CCc2ccccc2)n1,-5.0%
CN1CCN(C(=O)C2CCN(S(=O)(=O)c3cnc[nH]3)CC2)CC1,3.3%
COc1ccc2c3c(c(=O)oc2c1OCC(=O)C(C)(C)C)CCCC3,25.1µM*
CC1(C)C=C(c2ccc(O)cc2)CC(C)(C)N1,-2.9%
Cc1csc(NC(=O)CSc2nnc(-c3ccncc3)o2)n1,-1.4%
C(=N/n1c2ccccc2c2ccccc21)/c1ccco1,-9.0%
O=C1CCCc2nc(N3CCN(Cc4ccccc4)CC3)ncc21,-4.8%
COc1ccc(-n2nnc3c(=O)n(CC(=O)N4CCC(C)CC4)cnc32)cc1,5.3%
CCOC(=O)N1CCC(NC(=O)C2CCC(Cn3c(=O)[nH]c4ccccc4c3=O)CC2)CC1 (stereo not drawn),-7.2%
c1ccc(N2CCN(c3nnnn3-c3ccccc3)CC2)cc1,3.0%
NC[C@H](O)c1ccc(O)c(O)c1,12.0%&30.9%
Cc1csc(SCC(=O)Nc2ccccn2)n1,-16.2%
Cc1csc(N(C(=O)c2cccc(S(=O)(=O)N(C)C)c2)c2ccccc2)n1,3.5%
COc1ccccc1CNC(=O)c1cnc2ccccn2c1=O,?
CSCCC(NC(=O)C1CCC(C)CC1)C(=O)N1CCN(c2ccccn2)CC1 (stereo not drawn),25.1µM*
CCC(CC)C(=O)Nc1cccc(C(=O)N2CCCCCC2)c1,4.4%
COC(=O)c1ccccc1OCC(=O)NC1CCCCC1,-7.7%
O=C(NC1CCCCC1)C(c1ccc(F)cc1)N(Cc1ccco1)C(=O)Cn1nnc2ccccc21 (stereo not drawn),8.2%
